CSC inhib – cancer stem cell inhibition; actives 1.1% (n = 300,000); cancer stem cell-like cells viability, luminescence; inhibition, % at 7.5 µM; AID 2717;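 active means mean at 75% or more and at least half the replicates too; tested in HMLE shEcad cells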;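 further: 0% = median of negative and 100% = median of positive control wells; the first replicate is given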
eIF4H inh – inhibitors of RNA binding by human eIF4H; eIF4H fluorescence polarization binding assay; inhibition, % at 35 µM; actives 0.94% (n = 290,000);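 active means 50% or more with normal probe brightness, or confirmed in later tests; about a fifth of its hits are not listed in these tables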;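 further: calls also rest on retests at 20 µM and on dose response follow-up; 0% = protein and probe with vehicle and 100% = probe without protein; strong numbers were not always called active; many hits fall short of the cut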
MT1-MMP act inh – MT1-MMP (human) activation inhibition. actives 0.061% (n = 360,000). P50281. GFP/RFP ratio change, % at 20 µM. HT1080 RFP-PRO-GFP cells, GFP/RFP ratio fluorescence, overnight; percent of plate control window, DMSO zero;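 active means GFP/RFP ratio change of at least 30% with cell ATP level not reduced by more than half and red fluorescence within 50% of control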; further: strong numbers were not always called active
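Assay system: HT1080 RFP-PRO-GFP cells | Dosing: 20 µM single dose, 1% DMSO | Incubation: Cells overnight before dosing, compound overnight, 37 °C, 5% CO2 | Evaluation: GFP/RFP fluorescence ratio | Control set: DMSO-only wells and HT1080 RFP-L50D-GFP cell wells as references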
PABP FP inh – blocks human PABP binding to poly(A) RNA. fluorescence polarization. inhibition, % at 35 µM. actives 1% (n = 290,000). AID 2014. P11940;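 active means 50% or more with normal probe brightness, or confirmed in later tests; about a fifth of its hits are not listed in these tables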;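 further: calls also rest on retests at 20 µM and on dose response follow-up; controls were probe without protein and protein plus probe with vehicle; some compounds called inactive have numbers as strong as hits; many hits fall short of the cut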
Target sequence (P11940 whole entry, looked up): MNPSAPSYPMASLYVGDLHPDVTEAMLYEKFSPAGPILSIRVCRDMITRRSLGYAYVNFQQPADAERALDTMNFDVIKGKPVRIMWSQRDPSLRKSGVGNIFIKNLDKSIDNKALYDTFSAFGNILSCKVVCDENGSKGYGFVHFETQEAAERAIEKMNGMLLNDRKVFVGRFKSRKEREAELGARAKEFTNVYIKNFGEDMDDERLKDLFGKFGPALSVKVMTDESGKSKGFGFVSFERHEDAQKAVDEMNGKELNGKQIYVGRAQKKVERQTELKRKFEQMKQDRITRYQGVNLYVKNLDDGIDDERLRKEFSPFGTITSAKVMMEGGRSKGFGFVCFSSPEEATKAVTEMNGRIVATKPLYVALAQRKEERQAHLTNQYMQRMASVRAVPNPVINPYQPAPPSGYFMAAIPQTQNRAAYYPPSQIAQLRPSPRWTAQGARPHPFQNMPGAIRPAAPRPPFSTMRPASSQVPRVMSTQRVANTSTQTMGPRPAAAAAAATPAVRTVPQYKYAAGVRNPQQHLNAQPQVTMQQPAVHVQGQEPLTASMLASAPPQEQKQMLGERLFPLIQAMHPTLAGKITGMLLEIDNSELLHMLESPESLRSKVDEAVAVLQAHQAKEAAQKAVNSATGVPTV
Rce1 inhib – inhibitors of yeast Ras-converting enzyme. calls only. yeast membranes, quenched prenylated peptide cleavage fluorescence. Q03530. actives 0.27% (n = 290,000);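 active means fall in fluorescence gain of 50% or more versus controls, with final raw signal at or below 3038400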;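 further: plate controls were neutral control wells for no effect and wells lacking membranes for full effect; tested at 10 µM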
Env fusion inh – inhibitors of HIV Env-mediated cell fusion | HeLa-JRFL Env/CEM21 cell fusion, luciferase | inhibition, % at 12.3 µM | actives 1.1% (n = 360,000);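 active means mean replicate inhibition score of at least 50 and every replicate individually at or above 50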;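 further: 0% = plate neutral controls and 100% = maraviroc near 300 nM; one replicate is shown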
Yeast UUG start – yeast start codon fidelity modulation; S. cerevisiae UUG-firefly luciferase reporter, luminescence/redox ratio; actives 0.13% (n = 350,000); AID 602363; activity score, % at 18.7 µM;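 active means replicate mean at a twofold rise or more, about +100% in these data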;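 further: firefly luciferase made from a UUG start codon reports start codon fidelity; reporter light over untreated wells divided by growth signal over untreated wells; some hits fall short of that in this replicate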
MT1-MMP act inh RFP – recorded beside MT1-MMP act inh, whose call it bears; RFP signal change, %; measured here: RFP expression control read;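 0 = vehicle wells; hits needed this value within 50% of zero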
Active calls of the source: *; i = inactive; . = not tested or not shown; + = active, no number.

SMILES	CSC inhib	eIF4H inh	MT1-MMP act inh	MT1-MMP act inh RFP	PABP FP inh	Rce1 inhib	Env fusion inh	Yeast UUG start
COCCCNc1nc2c(c(=O)n(Cc3ccc(OC)cc3)c(=O)n2C)n1C	-14	-11	-1	-3	0	i	6	-28
CC(OC(=O)c1ccc([N+](=O)[O-])s1)C(=O)Nc1ncc(Cl)cc1Cl (stereo not given)	-3	-11	0	-1	4	i	5	-17
O=C(CSc1nnc(CNc2ccc(F)cc2)n1Cc1ccccc1)NCc1ccco1	-2	-1	2	6	12	i	27	-20
CC(=O)c1ccc(OCC(=O)N(CCC2=CCCCC2)c2c(N)n(Cc3ccccc3)c(=O)[nH]c2=O)cc1	6	.	-7	3	.	i	-36	-13
CCc1nnc(NC(=O)CSc2ncc(-c3ccccc3)n2C)s1	.	-2	3	0	6	i	11	-24
CC(=O)Nc1ccc(NS(=O)(=O)c2ccc3c(c2)n(C)c(=O)n3C)cc1	-11	-14	5	6	-12	i	12	-6
COc1ccc(C2/C(=C(/O)c3ccc4c(c3)CC(C)O4)C(=O)C(=O)N2CCCn2ccnc2)cc1 (stereo not given)	-8	-4	1	7	-2	i	-5	-13
Brc1ccc(-c2nc(N/N=C/c3cccnc3)c3ccccc3n2)cc1	63	-6	0	-1	1	i	.	.
O=C(Cn1c(CC(=O)N2CCCC2)nc2ccccc21)NCc1ccccc1	-4	-1	-3	-3	18	i	-64	.
Cc1cccc2[nH]c3c(N4CC=C(c5ccc(F)cc5)CC4)ncnc3c12	78*	-9	-6	-9	-3	.	13	-1
Cc1ccc(C(=O)Nc2nc(-c3ccc([N+](=O)[O-])cc3)cs2)o1	9	5	5	-3	-9	i	-5	.
CS(=O)(=O)c1ccc(C(=O)OCC(=O)NNC(=O)COc2ccc(Cl)cc2)cc1	-7	.	1	3	.	i	-17	-8
COc1ccc(OC)c(NC(=O)CNC(=O)Cn2cnc3sc(C)cc3c2=O)c1	0	-1	2	2	-1	i	-1	-20
Clc1cccc(Cl)c1CO/N=C/c1c(-c2ccccc2)nc2n1CCS2	64	3	-9	-6	-6	i	-17	-10
Cc1cc(C)cc(NC(=O)CN2CCC(NC(=O)Cc3ccccc3)CC2)c1	16	-10	4	1	5	i	.	1
O=c1c(-c2ccc(O)cc2)coc2cc(OC3OC(CO)C(O)C(O)C3O)ccc12 (stereo not given)	2	-2	1	1	0	i	-69	-13
CNC(=O)c1cc2cc(OC)ccc2n1CCN(Cc1ccccc1)Cc1ccccc1	2	3	-6	-6	7	i	.	-8
COc1ccc(CCN2C(=O)N[C@@H](CCC(=O)O)C2=O)cc1	-3	-6	-4	-2	-8	i	-7	-2
COc1ccc(CNC(=O)CN(Cc2ccc(Cl)cc2)C(=O)c2csnn2)cc1	.	-6	-1	-2	4	i	6	-15
CCc1ccc(NC(=O)N(CCN2CCOCC2)C2CCN(C(C)=O)CC2)cc1	-8	0	3	6	1	i	.	.

Molecules above with sulfur, in the order listed:
SMILES	CSC inhib	eIF4H inh	MT1-MMP act inh	MT1-MMP act inh RFP	PABP FP inh	Rce1 inhib	Env fusion inh	Yeast UUG start
CC(OC(=O)c1ccc([N+](=O)[O-])s1)C(=O)Nc1ncc(Cl)cc1Cl (stereo not given)	-3	-11	0	-1	4	i	5	-17
O=C(CSc1nnc(CNc2ccc(F)cc2)n1Cc1ccccc1)NCc1ccco1	-2	-1	2	6	12	i	27	-20
CCc1nnc(NC(=O)CSc2ncc(-c3ccccc3)n2C)s1	.	-2	3	0	6	i	11	-24
CC(=O)Nc1ccc(NS(=O)(=O)c2ccc3c(c2)n(C)c(=O)n3C)cc1	-11	-14	5	6	-12	i	12	-6
Cc1ccc(C(=O)Nc2nc(-c3ccc([N+](=O)[O-])cc3)cs2)o1	9	5	5	-3	-9	i	-5	.
CS(=O)(=O)c1ccc(C(=O)OCC(=O)NNC(=O)COc2ccc(Cl)cc2)cc1	-7	.	1	3	.	i	-17	-8
COc1ccc(OC)c(NC(=O)CNC(=O)Cn2cnc3sc(C)cc3c2=O)c1	0	-1	2	2	-1	i	-1	-20
Clc1cccc(Cl)c1CO/N=C/c1c(-c2ccccc2)nc2n1CCS2	64	3	-9	-6	-6	i	-17	-10
COc1ccc(CNC(=O)CN(Cc2ccc(Cl)cc2)C(=O)c2csnn2)cc1	.	-6	-1	-2	4	i	6	-15

Next entries.
SMILES	CSC inhib	eIF4H inh	MT1-MMP act inh	MT1-MMP act inh RFP	PABP FP inh	Rce1 inhib	Env fusion inh	Yeast UUG start
Cc1cc(/N=C/N(C)C)on1	-7	1	0	2	8	i	.	-29
CCOc1cccc(-c2nnc(SCC(=O)Nc3ccc(OC)c(OC)c3)n2N)c1	8	2	6	4	-2	i	-18	-14
COCCOC(=O)C1=C(C)N=c2s/c(=C\c3cccs3)c(=O)n2C1c1cccs1 (stereo not given)	-17	4	6	2	0	i	.	-15
CN(C)C(/C=C/Nc1ccc(F)cc1F)=C(C#N)C#N	-3	8	-1	3	0	i	.	-19
FC(F)(F)c1cc(Oc2ccccc2)ncc1-c1nnc(-c2ccccc2Cl)o1	43	3	2	-8	-2	+	25	-11
C[C@H](NC(=O)c1ccc(C(C)(C)C)cc1)C(=O)N1CCN(C/C=C/c2ccccc2)CC1	27	.	-2	-17	.	.	.	-11
Cc1c(C)c2cc(Cl)c(OCC(=O)NC3CC(C)(C)NC(C)(C)C3)cc2oc1=O	-10	.	6	6	.	i	-3	3
CCOC(=O)c1ccc(NC(=S)Nc2ccccn2)cc1	13	-7	4	-4	3	i	i	2
Cc1c(C(=O)N2CCN(c3ccccn3)CC2)sc2ncnc(N3CCOCC3)c12	3	-8	-1	-1	3	i	.	-38
CN(CC(=O)N(C)CC(=O)Nc1c(Cl)cccc1Cl)Cc1ccccc1F	7	.	3	6	.	.	.	-7
Cc1ccc(CS(=O)(=O)c2nc3c(c(N(C)C)n2)CCCC3)cc1	-18	-1	7	3	-8	i	2	.
COc1ccc(N2CCN(C(C)C(=O)N3CC(C)OC(C)C3)CC2)cc1 (stereo not given)	-15	14	1	4	4	i	11	.
COc1ccc(C2c3ccc4ccccc4c3Oc3ncn(CCO)c(=N)c32)cc1 (stereo not given)	35	5	-3	-7	18	i	.	-5
COCC(C)NC(=O)Cc1ccc(F)cc1 (stereo not given)	-16	-4	0	3	0	i	.	.
CN(C)CCCNC(=O)CCc1ncc(C(F)(F)F)cc1Cl	-10	1	-1	3	-9	i	-2	-14
C=CCNC(=S)Nc1ccc(C)c(S(=O)(=O)N2CCCCC2)c1	-16	-9	5	0	-6	i	0	-21
CC1=C(C(=O)N2CCCCC2)C2(CCC(C)CC2)OC1=O (stereo not given)	-12	-1	1	4	14	i	-52	-5
Cc1ccc(S(=O)(=O)n2c([N+](=O)[O-])cnc2C)cc1C	7	4	.	.	0	i	13	.
O=C(Nc1nnc(-c2ccc(F)cc2)o1)c1ccc(S(=O)(=O)N2CCOCC2)cc1	32	8	-1	1	2	i	.	-28
CCN(CC(=O)NCc1ccc(F)cc1)C(=O)Cc1c(F)cccc1Cl	-10	6	-4	-2	16	i	-5	-11
O=C(CCNC(=O)c1ccc(Br)cc1)NNC(=O)COc1ccccc1F	0	.	1	5	.	.	73*	.
COc1ccc(NC(=O)C(C)N(C)Cc2ccc3ccccc3c2)cc1 (stereo not given)	19	0	-1	-2	6	i	-15	-16
CCOc1ccc2nc(NC(=O)COC)sc2c1	-11	1	2	1	2	i	-166	-29
CC(C)c1c(C(=O)N/N=C/c2ccccc2C(=O)O)nnn1-c1nonc1N	2	.	4	8	.	i	-1	-6
COc1ccc(-c2nc(-c3ccccc3)c(-c3cc([N+](=O)[O-])ccc3C)[nH]2)cc1O	-19	-7	3	-8	0	i	.	-13
CC(=O)NCCn1ccc2ccccc21	-10	1	-1	1	-4	i	.	-10
O=C(Nc1ccccc1C(=O)NCc1cccnc1)c1ccc(Cl)cc1Cl	9	-2	.	.	27	i	-11	.
O=C(Nc1nnc(C2CC2)s1)c1cc(S(=O)(=O)N2CCCCC2)ccc1N1CCOCC1	0	-6	-2	-4	0	i	6	-10
CC1CN(Cc2c(O)ccc3c(=O)c(-c4ccccc4)coc23)CC(C)O1 (stereo not given)	-1	-4	0	-4	-10	i	-11	-2
FC(F)(F)c1ccc(Oc2ccc(Cl)cc2Br)nc1	-4	-4	3	6	-12	i	15	.

3 structures already listed, arranged by formula weight, lowest first:
SMILES	CSC inhib	eIF4H inh	MT1-MMP act inh	MT1-MMP act inh RFP	PABP FP inh	Rce1 inhib	Env fusion inh	Yeast UUG start
Cc1ccc(C(=O)Nc2nc(-c3ccc([N+](=O)[O-])cc3)cs2)o1	9	5	5	-3	-9	i	-5	.
O=C(Nc1ccccc1C(=O)NCc1cccnc1)c1ccc(Cl)cc1Cl	9	-2	.	.	27	i	-11	.
O=c1c(-c2ccc(O)cc2)coc2cc(OC3OC(CO)C(O)C(O)C3O)ccc12 (stereo not given)	2	-2	1	1	0	i	-69	-13

Following part
SMILES	CSC inhib	eIF4H inh	MT1-MMP act inh	MT1-MMP act inh RFP	PABP FP inh	Rce1 inhib	Env fusion inh	Yeast UUG start
CCn1c(SCc2nnc(-c3ccccc3)o2)nnc1-c1ccc(S(=O)(=O)N2CCCC2)cc1	-13	-10	7	2	-7	i	5	-13
O=C(O)COc1ccc(Br)cc1/C=N\Nc1ccccn1	1	-2	1	0	6	i	.	-19
COc1ccc(/C(C)=N/NC(=O)c2nnn(-c3nonc3N)c2-c2cccs2)cc1	-4	-8	1	3	26	i	-1	-24
O=c1cc(CSc2ccc(Cl)cc2)nc(-c2ccccc2)[nH]1	-14	4	1	4	-3	i	-24	.
CC(=O)c1ccc(NS(=O)(=O)c2ccc(N)cc2)cc1	0	0	-1	-4	2	i	-19	-3
COc1ccc(N(CC(=O)Nc2ccccc2C(=O)O)S(=O)(=O)c2ccc(C)c([N+](=O)[O-])c2)cc1	-27	2	0	2	4	i	-6	-9
O=C(COC(=O)/C=C/c1ccc2c(c1)OCO2)NC1CC1	-3	-5	-1	0	-9	i	-9	.
CCN(CC)C(=O)c1cccc(-c2csc(C(O)(c3ccccc3)C(F)(F)F)n2)c1 (stereo not given)	.	.	3	-18	.	.	14	-5
CCC1=NN(S(=O)(=O)c2ccc(C)cc2)C(O)(C(F)(F)F)C1 (stereo not given)	-23	3	-2	2	8	i	6	.
O=C(/C=C/c1ccccc1Cl)NCCc1ccc(F)cc1	-11	-12	1	-1	-3	i	-24	-19
Cc1cc2oc(C(=O)N3CCN(CCc4ccccn4)CC3)c(C)c2cc1C	16	-10	-12	-4	-6	i	-6	-9
CC(Sc1ccccn1)C(=O)Nc1ccccc1 (stereo not given)	.	-1	-1	2	5	i	-30	-7
C=CCNc1sc(C(=O)c2ccc(Br)s2)c(N)c1C#N	.	7	-20	1	26	i	-494	-24
Cc1ccc(C2NC(c3ccc(C)cc3)C(C)C(=NO)C2C)cc1 (stereo not given)	19	1	-10	-7	-5	i	.	.
Cc1ccccc1C(=O)Nc1nnc(S(=O)(=O)N2CCCCCC2)s1	16	2	10	-7	2	i	6	0
COc1ccc(NC(=O)C2CCCN(S(=O)(=O)c3ccc4c(c3)CC(C)N4C(C)=O)C2)cc1 (stereo not given)	9	.	-1	-9	.	i	2	4
COc1ccc(N2Cc3ccccc3C2=NC(=O)c2cccc([N+](=O)[O-])c2)cc1	1	9	2	1	4	i	-3	.
O=C(CCC(=O)N1CCOc2ccccc21)NCc1cccnc1	-24	-7	2	3	-1	i	.	-16

Profiles, looked up by structure. Order of values: CSC inhib | eIF4H inh | MT1-MMP act inh | MT1-MMP act inh RFP | PABP FP inh | Rce1 inhib | Env fusion inh | Yeast UUG start
Shown for O=C(CCC(=O)N1CCOc2ccccc21)NCc1cccnc1 → -24 | -7 | 2 | 3 | -1 | i | . | -16
Shown for Cc1ccc(C2NC(c3ccc(C)cc3)C(C)C(=NO)C2C)cc1 (stereo not given) → 19 | 1 | -10 | -7 | -5 | i | . | .

From PubChem
